gsp antag: antagonizes gsp, the McCune-Albright syndrome mutation; gsp-mutant cells, cAMP HTRF, 30 min; control for the full effect not named in the record; Potency, µM (titrated, usually from 76.9 µM), inactives show at the top dose activity change, negative = inhibition, actives largely listed as inhibitors; hit rate 0.4% among 340,000; active = falling curve of any shape with a large fitted effect; inconclusive = falling curve, mostly with a smaller effect; inactive = flat or rising curve; cell line not stated here;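 further: intracellular cAMP measured with PDE inhibitor Ro 20-1724 present during compound exposure; potency means the concentration at half of the fitted maximal effect; on the % scale 0 is the no-effect control and ±100 the full control effect; nearly all actives have a fitted effect of over 65% in size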
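Measurement of cellular cAMP by homogeneous time-resolved fluorescence following a 30 min compound exposure at 37C. The PDE inhibitor […] was present throughout; the assay buffer was DPBS with 0.05% BSA and 0.005% Tween 20.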
gsp ag: gsp mutant agonism | gsp mutant cells, cAMP HTRF, 30 min; control for the full effect not named in the record | Potency, µM (doses to about 76.9 µM), without a hit: top-dose activation (cAMP increase), most hits filed as activators | hit rate 0.13% among 340,000 | AID 624287; active = well fitted activation curve with a large enough effect; inconclusive = small, poorly fitted or top-dose-only effect, or another doubt; inactive = no such curve, though single readings can be large or run the other way; cell line not stated here;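 further: phosphodiesterase inhibitor Ro 20-1724 added with compounds to block cAMP breakdown; potency means the concentration at half of the fitted maximal effect; nearly all actives have a fitted effect of over 60% in size; about a fifth of the inactives were tested at one dose only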
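Cells stably selected in G418 were plated at 2000/well, grown 16-24 hr, then given compounds in DMSO with the PDE inhibitor […] (300 uM solution added) for 30 min at 37C; cAMP was read by HTRF.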
ClpP mod: qHTS Assay for Activators of ClpP; ATP-dependent Clp protease proteolytic subunit (Bacillus subtilis (strain 168)), P80244; purified B. subtilis ClpP, FRET peptide cleavage, 20 min; Potency, µM (highest dose often 57.5 µM), for inactives: at the highest dose activity change, negative = active; hit rate 1.9% among 340,000; AID 651965, 2013; active = well fitted falling curve with a large enough effect; inconclusive = small, poorly fitted or top-dose-only effect; inactive = no such curve, though single readings can be large or run the other way; further: potency means the concentration at half of the fitted maximal effect; the source files actives as falling curves though it sought activators and does not explain the sign; nearly all actives have a fitted effect of over 65% in size; many hits overshoot -100%
Target sequence (P80244 whole entry, looked up): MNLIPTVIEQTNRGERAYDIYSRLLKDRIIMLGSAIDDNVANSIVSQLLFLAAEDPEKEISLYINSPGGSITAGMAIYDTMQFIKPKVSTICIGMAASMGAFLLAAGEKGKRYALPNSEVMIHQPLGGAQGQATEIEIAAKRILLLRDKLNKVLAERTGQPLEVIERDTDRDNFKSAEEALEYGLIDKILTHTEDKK
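FRET quenching reversal measured ClpP activation: 10 microg/mL B. subtilis ClpP at pH 8 with the FRET-FV decapeptide, read at 430 nm after 320 nm excitation. The 20-min minus 0-min signal was scaled between DMSO/no-enzyme wells and ADEP (5.8 microM final).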
Menin MLL FP FL: menin-MLL binding inhibition, fluorescein peptide | Fluorescence polarization, fluorescein-MLL peptide displacement from menin | FP activity change, % at 61.4 µM | 290,000 tested, under 10 active; inconclusive = falling polarisation curve, or a change in total fluorescence; inactive = total fluorescence flat and polarisation flat or rising; no compound was filed as active; the % refers to the polarisation; negative = inhibition;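 further: % of control where 0% means no effect; inhibitors lower the polarisation; unlabelled MLL peptide was the positive control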
D2 ag: human D2 receptor agonism in beta-arrestin assay | P14416 | activation, % (test concentration not listed) | DiscoveRx PathHunter D2 beta-arrestin, luminescence, 90 min; 100% = 57 uM dopamine signal | AID 624465 | hit rate 0.084% among 360,000; in the data active = activation above about 40%; inconclusive = about 15% to 40%; inactive = below about 15%; further: compound concentration not given in the record; the text of the record calls up to 30% inactive
Target sequence (P14416 whole entry, looked up): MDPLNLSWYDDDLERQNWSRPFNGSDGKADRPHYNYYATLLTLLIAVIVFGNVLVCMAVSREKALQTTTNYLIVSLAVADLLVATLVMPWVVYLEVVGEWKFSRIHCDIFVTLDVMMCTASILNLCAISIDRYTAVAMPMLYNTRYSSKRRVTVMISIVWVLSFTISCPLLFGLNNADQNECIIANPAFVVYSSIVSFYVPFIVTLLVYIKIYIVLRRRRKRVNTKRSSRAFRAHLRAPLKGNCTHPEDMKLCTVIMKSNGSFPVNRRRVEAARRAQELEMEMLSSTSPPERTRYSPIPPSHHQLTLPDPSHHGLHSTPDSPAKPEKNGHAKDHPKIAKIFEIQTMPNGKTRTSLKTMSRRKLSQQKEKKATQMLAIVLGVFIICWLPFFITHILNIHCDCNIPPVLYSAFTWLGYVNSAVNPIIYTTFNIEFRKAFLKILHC
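Agonist mode: compounds alone added to overnight-plated D2 PathHunter cells for 90 min at 37 C, with 57 uM final dopamine (EC100) defining full response. Beta-arrestin recruitment detected by chemiluminescent reagent, read after 1 h at ambient temperature.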
PINK1 modulator: changes PINK1 expression; PINK1 immunofluorescence, high-content cytometry, 24 h; hit rate 0.2% among 410,000; Potency, µM (doses to about 76.6 µM), inactives show at the top dose activation (PINK1 increase), usual class: activators; AID 624263; active = well fitted activation curve with a large enough effect; inconclusive = small, poorly fitted or top-dose-only effect; inactive = flat fitted curve, though single readings scatter; cell line not stated here;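 further: potency means the concentration at half of the fitted maximal effect; % of control where 0% means no effect; nearly all actives have a fitted effect of over 65% in size; a mitochondrial uncoupler was the plate control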
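Compound titrations (5 concentrations, 24 h) on a stable cell line; DMSO and CCCP controls. Endpoint: fixed-cell PINK1 immunofluorescence with mitochondrial, cell and nuclear markers, scanned by microplate cytometer.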
Sfp inh: blocks B. subtilis Sfp PPTase activity | hit rate 3.5% among 310,000 | Biochemical Sfp PPTase activity, qHTS | Potency, µM, for inactives: max response, negative = inhibition, hits mostly inhibitors | Q9F4F7; active means well fitted inhibition curve with a large enough effect; inconclusive means small, poorly fitted or top-dose-only effect, or another doubt; inactive means no such curve, though single readings can be large or run the other way;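 further: the enzyme is Sfp with the accession as filed and its product quenches rhodamine fluorescence; potency means the concentration at half of the fitted maximal effect; 0% = enzyme reaction without inhibitor and -100% = no enzyme wells; top concentration of the series not given in the record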
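Fluorescence-quenching assay: 15 nM Sfp-PPTase preincubated 15 min at room temperature with compound, then 5 uM rhodamine-CoA and 12.5 uM BHQ-2-labelled YbbR peptide added. Fluorescence (ex 525/em 598 nm) read at start and after 30 min; difference gives rate.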
The depositor's hits bear a star; ? = inconclusive; / = no result given; & = joins results of further samples; [ ] = remark or other dose.

Molecule | gsp antag | ClpP mod | gsp ag | Sfp inh | D2 ag | PINK1 modulator | Menin MLL FP FL
CCOC(=O)C1(Cc2ccccc2C)CCCN(C(=O)c2ccoc2)C1 (centres undefined) | 1% | -2.0% | -1%[15.4 µM] | -1% | -1.3 | 0.1% | /
COc1ccc(CN2C(=O)c3ccccc3C2C(=O)NC2CCCC(C)C2C)c(OC)c1 (centres undefined) | -14% | 0.3% | -4% | 15% | -5.8 | 2.0% | 2.0
COc1ccc(N2C(=O)CSC2c2ccc(F)c(F)c2)cc1 (centres undefined) | -1% | / | -4%[15.4 µM] | 4% | 1.0 | -1.4% | -0.1
COc1ccc(C(CCNCc2ccc(OC)c(OC)c2)c2ccc(F)cc2)cc1 (centres undefined) | -2% | / | 30%[15.4 µM] | 8% | -4.7 | 1.1% | 1.8
Cc1ccc(-c2nnc(N3CCN(C(=O)CN4CCOCC4)CC3)c3ccccc23)cc1 | -1% | -0.9% | 28% | 5% | -3.8 | -12%[38.3 µM] | 6.2
Cc1ccc(S(=O)(=O)N2CCN(C(=O)CN3CCOCC3)C2)cc1 | ? | 1.8% | -5% | 13% | -3.0 | -0.6% | 0.2
CC(NC(=O)COc1ccc(-c2ccccc2)cc1)C1CCCO1 (centres undefined) | -16% | 1.1% | -3% | -4% | -5.5 | 0.5% | /
NC(=O)COn1c(SCC(N)=O)nc2ccccc2c1=O | -38% | 5.5% | -17%[15.4 µM] | 1% | -2.5 | -0.7% | 5.7
Cc1ccccc1S(=O)(=O)Cc1ccc(C(=O)N2CCN(c3ncccn3)CC2)o1 | 2% | -9.3% | -15% | 0% | 2.8 | 1.9% | -2.6
C/C(CC(=O)Nc1ccc([N+](=O)[O-])cc1)=N\NC(=O)c1ccccc1O | -26% | -5.7% | -28% | 19% | -5.0 | -0.5% | 9.4
O=C1c2ccccc2-c2nnc(-c3ccc(O)cc3)cc21 | 4% | 1.8% | 5% | 10% | -22 | 0.2% | -1.9
O=C(O)Cn1cc(/C=N/Nc2ccc([N+](=O)[O-])cn2)c2ccccc21 | -12% | 1.1% | 6%[15.4 µM] | ? | -9.4 | 0.6% | 20
CCc1ccc(-c2cc(C)no2)cc1S(=O)(=O)N1CCN(C(=O)c2ccco2)CC1 | -21% | / | 17% | -19% | -3.1 | -1.3% | 0.0
COc1ccc2nc(NC(=O)c3ccco3)sc2c1 | -11% | -6.7% | 1% | 14% | -2.0 | -0.2% | 2.9
CC(C)C(=O)Nc1c2c(nc3ccccc13)N(C)CC2 | 15% | 33% | 0% | 12% | -2.2 | -1.2% | 4.7
COc1ccc(-c2nc3cnc(Nc4ccccc4)nc3n(CCC#N)c2=O)cc1 | / | / | / | 13% | / | 11µM* | ?
CCC(C)Sc1cccc(-c2nc3ccc(Cl)cn3c2NCc2ccccc2)c1 (centres undefined) | -3% | 25µM* | / | / | 1.1 | ? | /
O=C(Nc1cnn(Cc2ccc(F)cc2)c1)c1cc2nc(-c3ccco3)cc(C(F)(F)F)n2n1 | 17% | -3.2% | -32%[inhibitor] | 17% | -4.6 | 5.1% | 0.5
Cc1ccc2cc(C#N)c(SCC(=O)N3CCCc4ccccc43)nc2c1C | 8% | -3.7% | -13% | -3% | -6.4 | -0.4% | 11
S=C(NC1CCCCC1)N1CCCCC1 | 7% | / | 14%[15.4 µM] | 5% | -1.7 | 1.7% | -1.7

Next structures.
Molecule | gsp antag | ClpP mod | gsp ag | Sfp inh | D2 ag | PINK1 modulator | Menin MLL FP FL
CC#CCN(Cc1ccco1)C(=O)C1CCC(=O)N(Cc2ccccc2F)C1 (centres undefined) | -3% | -0.7% | 23%[15.4 µM] | 3% | 2.2 | 2.3% | /
CCOC(=O)C1=C(O)/C(=C/c2cc(OC)c(OC)c(OC)c2)SC1=Nc1ccc(OC)cc1 | ? | -0.1% | 23% | -4% | -3.5 | 2.6% | 1.9
NC1=NC(=Nc2cccc(S(=O)(=O)N3CCOCC3)c2)c2ccccc21 | -3% | / | 8%[15.4 µM] | 2% | -1.5 | 3.1% | 0.5
N/C(=N\OC(=O)/C=C/c1ccccc1)c1ccncc1 | -4% | 1.6% | -45%[inhibitor] | 29% | ? | 0.3% | -3.9
OC(COC(c1ccccc1)c1ccccc1)CN1CCOCC1 (centres undefined) | 12% | 0.0% | -6% | 10% | -3.1 | 4.2% | -4.3
COc1ccc(C2c3c(C)nn(-c4ccccc4)c3NC(=O)N2c2ccccc2)cc1 (centres undefined) | -4% | / | -13% | 0% | 3.4 | 3.7% | 1.8
CCN1CCN(S(=O)(=O)c2ccc(Cl)c(C(=O)NCc3ccco3)c2)CC1 | 2% | -2.0% | -15%[15.4 µM] | / | -2.4 | -1.3% | /
COc1ccc(CCNS(=O)(=O)c2cnc(Cl)c(Br)c2)cc1OC | -7% | -0.2% | 8% | 17% | -3.9 | 0.6% | -2.1
O=C(O)c1ccc(/C=C2\SC(=S)N(NC(=O)c3ccccc3[N+](=O)[O-])C2=O)cc1 | 1% | -0.3% | -12% | -23% | -8.6 | 1.3% | 9.3
CCCCOC(=O)c1ccc(NC(=O)C(=O)NCc2ccco2)cc1 | 9% | / | -13%[15.4 µM] | 16% | -1.8 | -0.6% | -0.5
CN(/C=C1/C(=O)CNC1=O)CCO | -5% | / | 13%[15.4 µM] | 3% | 2.1 | 0.9% | 0.5
Cc1cc(N2CCCCC2)nc(-c2ccc(Br)cc2)n1 | -19% | -11% | 6% | 5% | -4.3 | 12% | -1.2
CCCP(=O)(CC(=O)O)c1ccccc1 (centres undefined) | 1% | -12% | -26% | 12% | -1.6 | 2.0% | 0.6
C=CCn1c(COc2cccc3cccnc23)nnc1SCC(=O)OC | 2% | -19% | 7% | 2% | -2.2 | -0.8% | -1.9
CN(C)Cc1ccccc1-c1cc(N(C)Cc2ccco2)ncn1 | / | / | / | 22% | / | 1.6% | -10
O=C(Cn1c(CC(=O)N2CCOCC2)nc2ccccc21)Nc1ccc2c(c1)OC(F)(F)O2 | -9% | 1.0% | -2% | 10% | -0.5 | 0.3% | 1.0
N#Cc1c(NCc2ccccc2)ccnc1NCc1cccnc1 | -9% | -7.8% | 12% | 5% | -2.1 | 0.1% | -1.0
O=[N+]([O-])c1ccc(Cl)c(/C=N/N2CCN(Cc3ccccc3)CC2)c1 | -1% | 2.1% | -31% | 6% | -2.1 | / | -2.5
COc1cc(-c2[nH]nc3c2C(c2ccoc2)C(C#N)=C(N)O3)cc(OC)c1OC (centres undefined) | 0% | -2.1% | 14% | -3% | -1.8 | 0.2% | ?
CCC1CCCCN1C(=O)COc1ccc(F)cc1 (centres undefined) | 0% | 0.1% | -2% | -8% | -4.3 | -0.5% | -1.0

(list continues)
Molecule | gsp antag | ClpP mod | gsp ag | Sfp inh | D2 ag | PINK1 modulator | Menin MLL FP FL
Cc1nc(C)c(-c2csc(Nc3ccccn3)n2)s1 | -13% | -8.9% | -22% | -22% | -2.8 | 1.1% | 4.0
Cc1ccc(CNC(=O)COC(=O)CN2C(=O)C3CC=CCC3C2=O)cc1 (centres undefined) | -12% | -1.3% | -3% | / | 1.0 | 2.3% | /
CC(C)[C@H](NC(=O)OC(C)(C)C)C(=O)NCC1CCC(C(=O)N[C@@H](Cc2ccccc2)C(=O)O)CC1 (some centres undefined) | 4% | -4.9% | 24%[15.4 µM] | 1% | 0.7 | 4.0% | ?
CCOC(=O)CNC(=S)NN(C)C | 4% | / | 1%[15.4 µM] | -23% | 1.7 | 2.1% | -0.4
CCOC(=O)c1cc(-c2ccc(C)cc2)n(CCC(=O)NC(C)CC)c1C (centres undefined) | 11% | 0.2% | -32%[inhibitor] | 0% | -1.3 | -1.0% | 2.8
COc1ccc(CCNC(=O)CSc2nc(C)nc3sccc23)cc1OC | 9% | -0.8% | ? | 6% | -4.6 | 2.2% | -5.4
CCC(=O)N1CCc2cc(S(=O)(=O)N(C)c3ccc(Br)cc3)ccc21 | 1% | / | 5% | 13% | -5.3 | 9.7% | 7.3
O=C(CSCc1ccc(F)cc1)Nc1ccccc1C(=O)N1CCOCC1 | -11% | -1.2% | 5% | 24% | -0.8 | 2.2% | 3.4
COCCCn1nnnc1SCC(=O)Nc1nc2ccccc2s1 | -11% | / | 24% | 16% | -2.3 | 2.9% | /
O=C(Cc1c[nH]c2ccccc12)Nc1nnc(C2CC2)s1 | 4% | / | -16% | 10% | 1.9 | 4.2% | 0.1
Cc1ccc(/C=C/C(=O)Nc2ccc(S(N)(=O)=O)cc2)o1 | -5% | -7.2%&-14% | 7% | 10µM* | 2.6 | -0.7%&1.7% | 1.4
Cc1cccc(CN2CCC(Oc3ccc(C(=O)N4CCCCC4)cc3)CC2)c1 | 11% | -0.4% | -8% | 14% | -5.1 | -1.5% | /
O=C(NCC(=O)N1CCCC1)c1cccs1 | 4% | -0.9% | -55%[inhibitor] | 9% | -1.7 | / | 3.5
CCOc1ccc(NC(=O)CC2C(=O)N(C)C(=S)N2Cc2ccco2)cc1 (centres undefined) | 10% | -2.3% | -8% | 2% | -2.1 | -1.4% | 2.8
CCOC(=O)c1cc(-c2csc(-c3cccc(Cl)c3)n2)on1 | 9% | 1.6% | -2%[15.4 µM] | -4% | 0.2 | 2.8% | 2.3
Cc1cc(C)c2oc(=O)cc(CN3CCN(Cc4ccccc4)CC3)c2c1 | 0% | -8.0% | 5% | 10% | 0.8 | -0.6% | 1.9
COc1ccc(/C=N/NC(=O)Cn2c(Cc3ccc(OC)c(OC)c3)nc3ccccc32)cc1 | 18% | 2.1% | 18% | -22% | -0.7 | 0.8% | 6.6
COc1ccc(C)cc1NC(=O)CSc1ccc(-c2ccccn2)nn1 | -14% | -7.8%&0.4% | -9%[15.4 µM] | -3% | -4.3 | -0.7%&1.0% | /

Screening results deposited in PubChem by National Center for Advancing Translational Sciences (NCATS).
